# OX1R antagonist = human HCRTR1 antagonism | CHO/OX1R cells, Fluo-8 calcium fluorescence, orexin A | inhibition, % at 5 µM | 0.43% of 330,000 active | AID 434989;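 active means inhibition above its plate's threshold, mean inhibition of all tested compounds on the plate plus 3 SD, cut at about 37% in these data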;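 further: 0% = orexin A challenge wells and 100% = SB-334867-A antagonist wells; not every result past the cut was called active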
# Target sequence (O43613 whole entry, looked up): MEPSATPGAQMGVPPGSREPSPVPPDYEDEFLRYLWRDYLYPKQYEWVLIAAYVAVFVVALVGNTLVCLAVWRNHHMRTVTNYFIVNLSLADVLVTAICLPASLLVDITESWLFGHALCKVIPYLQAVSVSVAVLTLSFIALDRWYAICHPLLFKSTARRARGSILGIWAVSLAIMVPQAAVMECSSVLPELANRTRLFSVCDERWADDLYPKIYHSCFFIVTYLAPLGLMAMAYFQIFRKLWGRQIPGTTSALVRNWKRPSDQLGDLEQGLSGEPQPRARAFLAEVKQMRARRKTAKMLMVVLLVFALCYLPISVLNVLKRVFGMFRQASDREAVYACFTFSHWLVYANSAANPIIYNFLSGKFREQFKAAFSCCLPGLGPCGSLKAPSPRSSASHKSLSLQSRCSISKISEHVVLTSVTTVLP
# * hit, by the source's call.
# Start of the data: the first 3 compounds, ahead of the listing:
OX1R antagonist | SMILES
-4.3 | O=C(Nc1nc2ccccc2s1)c1cnccn1
-14.8 | Cc1ccccc1N=C1SCC(=O)N1Cc1ccccc1
7.4 | O=C(NN1C(=O)C2C3CCC(O3)C2C1=O)c1ccc(Cl)cc1 (configuration not stated)

# The whole of this part, from the start:
OX1R antagonist | SMILES
-4.3 | O=C(Nc1nc2ccccc2s1)c1cnccn1
-14.8 | Cc1ccccc1N=C1SCC(=O)N1Cc1ccccc1
7.4 | O=C(NN1C(=O)C2C3CCC(O3)C2C1=O)c1ccc(Cl)cc1 (configuration not stated)
-35.4 | COc1ccc(NC(=O)c2ccc(-c3ccccc3C(F)(F)F)o2)cc1
2.3 | CCc1cc(CNC(=O)C2CCC(=O)N(CCc3ccc(OC)cc3)C2)on1 (configuration not stated)
-15.0 | COc1ccccc1C(=O)Nc1ccc(S(=O)(=O)Nc2cnc3ccccc3n2)cc1
-0.8 | Cc1ccsc1/C=N/NC(=O)Cc1cc(=O)[nH][nH]1
-5.5 | COc1ccc(NC(=O)c2cccc(S(=O)(=O)N3CCOCC3)c2)cn1
-14.9 | OC(c1cccs1)(c1cccs1)C1C[N+]2(CF)CCC1CC2 (configuration not stated)
-13.2 | COc1ccc(N2C(=O)C3C4C=CC(C5CC45)C3C2=O)c([N+](=O)[O-])c1 (configuration not stated)

# New compounds follow:
OX1R antagonist | SMILES
-22.9 | COc1ccccc1C(=O)N1CCNC(=O)C1CC(=O)Nc1ccc(Cl)cc1 (configuration not stated)
-3.4 | COc1ccc(C2NC(=O)c3ccccc3O2)c(OC)c1OC (configuration not stated)
-5.8 | O=C(CSc1ccccc1)Nc1cccc(S(=O)(=O)N2CCCC2)c1
-20.1 | Cc1ccc(-c2nc3cccnc3s2)cc1NC(=O)c1ccco1
-4.9 | O=C(NCc1ccccc1)c1c(F)c(F)c(F)c(F)c1F
-2.6 | CN(C(=O)COC(=O)C1CCN(S(=O)(=O)c2cccs2)CC1)c1ccccc1
-30.1 | COCCCNc1ccc([N+](=O)[O-])cc1C(=O)Nc1cccc(C)n1
3.3 | CC1(C)CC(=O)C2=C(C1)NC1=C(C(=O)c3ccccc31)C2c1cc([N+](=O)[O-])ccc1O (configuration not stated)
-8.7 | CC(=O)Nc1ccc(C2NC(=O)CCC2[N+](=O)[O-])cc1 (configuration not stated)
-10.1 | COc1ccc(Br)cc1/C=N/NC(=O)C[n+]1ccccc1

# (list continues)
OX1R antagonist | SMILES
-5.5 | Cc1cc(Cl)ccc1NC(=S)N1CCC(C(N)=O)(N2CCCCC2)CC1
-27.8 | O=C(NCc1ccc(F)cc1)C(c1ccncc1)N(C(=O)c1csnn1)C1CC1 (configuration not stated)
4.2 | Fc1cccc(F)c1/C=N/NC(=S)Nc1cccnc1
-5.7 | O=c1c2c3c(sc2nc2n1CCCCC2)C(O)CCC3 (configuration not stated)
-15.2 | COc1ccc(CCN(C)C2CCCN(C(=O)c3ccnn3C)C2)cc1OC (configuration not stated)
0.9 | C#CCSc1nnc(-c2ccc(C)cc2)o1
-24.1 | Cc1nc2ccc(S(=O)(=O)NC(C(=O)N3CCC(C)CC3)C(C)C)cc2s1 (configuration not stated)
5.7 | COc1ccccc1N1CCN(Cc2cc(=O)n3ccsc3n2)CC1
-21.9 | O=C(NCCCO)c1cc([N+](=O)[O-])cc2c1C=Cc1ccccc1O2
-24.5 | CCOc1cc2[nH]c(=S)n(Cc3ccc(C(=O)NCCCOC)cc3)c(=O)c2cc1OCC

# (listing goes on)
OX1R antagonist | SMILES
-27.2 | CC1CCC(NC(=O)CN(C)S(=O)(=O)c2cccc3cccnc23)CC1 (configuration not stated)
-5.5 | Cc1cc2cc(CNS(=O)(=O)c3ccccc3)ccc2n1C
-0.9 | CCOc1ccc(N2CC(C(=O)NCCc3ccccc3)CC2=O)cc1 (configuration not stated)
-15.8 | Cc1ccccc1C(=O)Oc1ccccc1C(=O)N1CCOCC1
-2.3 | CC(=O)N/C(=N\c1nc(C)cc(C)n1)Nc1ccc2ccccc2c1
-20.9 | COc1ccc(-c2cc(=O)c3ccccc3n2C)cc1
-19.1 | COc1ccc(CCC(=O)NCc2cn3ccccc3n2)cc1
-6.4 | CCCCOC(=O)C1[C@H]2C(=O)N(Cc3cccs3)C[C@]23C=C[C@H]1O3 (some centres not stated)
-17.8 | COc1cc(/C=C/C(=O)N2CCC=CC2=O)cc(OC)c1OC
-35.5 | Cc1ccccc1N(C(=O)c1csnn1)C(C(=O)NC1CCCCC1)c1ccncc1 (configuration not stated)

# The results go on:
OX1R antagonist | SMILES
-34.1 | CCOc1cc(C2c3c(oc4ccccc4c3=O)C(=O)N2c2nccs2)ccc1O (configuration not stated)
-9.7 | Cc1ccc(C(=O)NCC(=O)OCC(=O)c2ccc(Br)s2)cc1
-17.1 | COc1ccccc1OCc1nc(C#N)c(NCCCn2ccnc2)o1
-28.4 | Cc1cccc(C(=O)Oc2ccccc2/C=N/NC(=O)c2ccc(NC(=O)C(C)(C)C)cc2)c1
-2.8 | CCOC(=O)C1CCCNC1=O (configuration not stated)
-24.3 | CCOC(=O)C1CCN(C(=O)c2ccc(CNS(=O)(=O)c3ccc(OC)cc3)cc2)CC1
-23.6 | N#Cc1nc(Cc2cccc3ccccc23)oc1NCCN1CCOCC1
-22.1 | Cc1ccc2nc(-c3ccc(S(=O)(=O)N4CCCCC4)cc3)cn2c1
-40.6 | CC1CC1c1ccc(/C=C(\C#N)C(=O)Nc2ccccc2Cl)o1 (configuration not stated)
-3.6 | CCc1ncc(C(O)c2cccc(OC)c2OC)n1C (configuration not stated)

# Following part:
OX1R antagonist | SMILES
-11.4 | Cc1ccc(-c2nc3sc4c(c3c(=O)n2N)CCCC4)cc1
-1.0 | O=C(NNc1cccc(Cl)n1)Nc1ccccc1
-18.2 | CCOc1ccc(S(=O)(=O)N(CC)CC(=O)NCc2ccncc2)cc1
-20.2 | CC1=CC(C)(C)N2C(=O)C3(C(C#N)=C(N)Oc4cc(C)oc(=O)c43)c3cccc1c32 (configuration not stated)
-19.7 | CS(=O)(=O)Cc1cccc(C(=O)NC2CCSc3ccccc32)c1 (configuration not stated)
-2.8 | CC1=NC(C(F)(F)F)(C(F)(F)F)C(C#N)=C(C)N1
-41.9 | O=[N+]([O-])c1cccc(S(=O)(=O)[N-]c2nc3ccccc3nc2-n2cc[n+](Cc3ccccc3)c2)c1
-12.6 | O=C(CSc1nccc(=O)[nH]1)NCc1ccc2c(c1)OCO2
1.4 | Cc1ccc(S(=O)(=O)N(C)C)cc1-n1c(SCC(=O)Nc2ccccc2)nc2ccccc2c1=O
-1.1 | N#Cc1c(N2C(=O)c3ccc(C(=O)O)cc3C2=O)sc2c1CCCC2

# Later entries.
OX1R antagonist | SMILES
-24.7 | O=C(Cc1ccc(Cl)c(Cl)c1)NC1CCCCCC1
-9.3 | CCCn1c(N2CCN(C)CC2)nc2c1c(=O)[nH]c(=O)n2C
-19.6 | COc1cccc(NCc2cc(=O)oc3cc(C)c(O)cc23)c1
-23.8 | CCOc1ccc(NC(=O)CN(C)C(=O)c2cc(C)on2)cc1OCC
22.4 | COc1ccc(C(=O)CSc2nc3cccnc3n2C)cc1
-24.1 | CCN1CCc2c(sc(NC(=O)c3ccc(S(=O)(=O)N4CCOCC4)cc3)c2C(=O)OC)C1
-16.9 | CCCS(=O)(=O)N1CCC(C(=O)NCCN2CCC(Cc3ccccc3)CC2)CC1
-13.8 | CC(C)Cc1ccc(C(C)C(=N)N)cc1 (configuration not stated)
-21.7 | Cc1c(Cl)cccc1NC(=S)N(CCCN1CCOCC1)Cc1cccs1
0.4 | COc1ccc(/C=N/NC(=O)/C(=C/c2ccccc2)CCO)cc1

# Another view of some results above:
SMILES,OX1R antagonist
COc1ccc(/C=N/NC(=O)/C(=C/c2ccccc2)CCO)cc1,0.4
CCCn1c(N2CCN(C)CC2)nc2c1c(=O)[nH]c(=O)n2C,-9.3
CCOc1ccc(NC(=O)CN(C)C(=O)c2cc(C)on2)cc1OCC,-23.8
Cc1c(Cl)cccc1NC(=S)N(CCCN1CCOCC1)Cc1cccs1,-21.7
CCCS(=O)(=O)N1CCC(C(=O)NCCN2CCC(Cc3ccccc3)CC2)CC1,-16.9

# Going on with the list.
OX1R antagonist | SMILES
-16.7 | Cc1ccccc1OCCN1C(=O)c2ccccc2C1=O
-6.6 | COP(=O)(OC)c1nc(-c2ccc([N+](=O)[O-])cc2)oc1N1CCCCC1
-21.0 | COCCNC(=S)N/N=C(\C)c1ccccc1F
-16.8 | Cc1cc2cc(CNC(=O)C3CC3)ccc2n1C
4.2 | COc1cc2c(cc1OC)C(c1ccc(O)cc1)NCC2 (configuration not stated)
-28.7 | CN1CCN(C(=O)C2=C[C@@H](C3CCCCC3)C[C@@H](OCc3ccc(CO)cc3)O2)CC1
-16.1 | Cc1ccc(NC(=O)C2CCCCC2C(=O)O)cc1C (configuration not stated)
-16.4 | COc1ccc(-c2oc3ncnc(N)c3c2-c2ccccc2)cc1
4.1 | COc1ccccc1CNC(=O)Cn1cnnn1
-27.9 | COc1ccccc1N1CCN(S(=O)(=O)c2cc3c(cc2C)NC(=O)CO3)CC1

# Other structures follow.
OX1R antagonist | SMILES
-15.0 | O=S(=O)(c1ccccc1)N1CCN=C1SCc1cccnc1
-10.1 | CCN(C(=O)COC(=O)C1CCN(S(=O)(=O)c2ccc3c(c2)OCCO3)CC1)C1CCS(=O)(=O)C1 (configuration not stated)
-11.8 | COc1cccc(N2C(=O)CC(Sc3nc(C)cc(C)n3)C2=O)c1 (configuration not stated)
-17.2 | Cc1[nH]c(=S)c(C#N)c(C)c1CC(=O)c1ccc(Br)cc1
-27.1 | O=C(Nc1ccccc1)C1=C[C@@H](c2coc3ccccc3c2=O)C[C@@H](OCCCCO)O1
-0.3 | COCCn1c(SCC(=O)Nc2sccc2C(N)=O)nc2cc(Cl)ccc2c1=O
-4.3 | CC(=O)NC1=NC(=O)CS1
-12.2 | CCOC(=O)C1(CCc2ccccc2)CCN(C(=O)C(C)n2cncn2)CC1 (configuration not stated)
-18.7 | CCOc1cccc2c1OC1(C)CC2NC(=O)N1c1cccc(F)c1 (configuration not stated)
0.7 | O=C(NCc1ccccc1F)c1cccs1

# Next part
OX1R antagonist | SMILES
-8.9 | O=C(Cn1nnc2ccccc2c1=O)Nc1ccc2c(c1)CCC2
-27.9 | CCc1c(C)nc2cc(-c3ccc(OC)c(OC)c3)nn2c1N1CCC(C)CC1
-18.9 | Cc1ccsc1C(=O)OCc1nc2ccsc2c(=O)[nH]1
-10.3 | Cc1csc(NC(=O)NCC2CCCC(CNC(=O)Nc3nc(C)cs3)C2)n1 (configuration not stated)
-5.3 | CC(C)C(c1nnnn1C1CCCC1)N1CCCCC1 (configuration not stated)
-17.1 | Sc1nnc(-c2ccc(Cl)cc2)n1Cc1ccccc1
-24.4 | CCOc1ccc(NC(=O)NC2CCCc3ccccc32)cc1 (configuration not stated)
-29.8 | Cc1cccc(N(CC(=O)NC(C)(C)C)C(=O)CNC(=O)c2cccs2)c1
-8.2 | CCN(CC)Cc1ccc(NC(=O)c2sc3cc(Cl)ccc3c2Cl)cc1
-14.9 | O=C(O)c1ccc(CNC(=O)c2ccccc2NC(=O)c2cccc([N+](=O)[O-])c2)cc1

# Following part.
OX1R antagonist | SMILES
-1.6 | COC(=O)/C(=C/c1cccnc1)NC(=O)c1ccccc1
-8.2 | Cc1ccccc1NC(=O)Cc1nnc(SCC(=O)Nc2ccccc2)n1C
-8.9 | O=C(Nc1ccccc1C(=O)O)c1ccc(N2C(=O)C3CC=CCC3C2=O)cc1 (configuration not stated)
5.8 | C#CCOCCOCCOCCNc1nc(N2CCN(C(=O)[C@H]([C@@H](C)CC)n3cc([C@@H](N)CC(C)C)nn3)CC2)nc(N2CCN(C(=O)[C@H](Cc3ccc(O)cc3)n3cc([C@@H](N)C(C)CC)nn3)CC2)n1 (some centres not stated)
-15.9 | Cc1ccc(C(=O)NC2CCN(S(=O)(=O)c3ccccc3)CC2)cc1
25.2 | O=C(Nc1ccccc1Cl)/C(Cl)=C(\Cl)S(=O)c1ccccc1 (configuration not stated)
-30.5 | CCOC(=O)Cn1c(=NC(=O)C2CC2)sc2c(C)cc(C)cc21
3.0 | COc1cc(/C=N/Nc2ccc(Cl)c(C(=O)O)c2)ccc1OCC(=O)N1C(C)CCCC1C (configuration not stated)
-21.5 | CCc1cc(C(=O)OC)c(NC(=O)CN2CCN(C(=O)c3ccco3)CC2)s1
4.5 | COC(=O)c1c[nH]n2c(=O)cc(CCl)nc12

# Following part:
OX1R antagonist | SMILES
-32.4 | COc1ccc(Cc2noc(CN3CCN(C4CCc5ccccc5C4)CC3)n2)cc1OC (configuration not stated)
-33.2 | Cc1ccc(Cl)cc1Nc1nc(N2CCOCC2)nc(N2CCOCC2)n1
-24.2 | COc1ccc(OCCC(=O)OCC(=O)NCc2ccc(F)cc2)cc1
-28.1 | O=C(C1=C[C@H](c2coc3ccccc3c2=O)C[C@H](OCCCCO)O1)N1CCN(Cc2ccccc2)CC1
-10.3 | COc1cc(C(=O)Nc2ccc3c(c2)OCCO3)ccc1OC(F)F
3.3 | Cc1cc(C)c(C(=O)/C=C/c2ccco2)c(=O)[nH]1
-4.2 | COc1ccc(/C(C)=N/N=C(\C)c2ccc(OC)cc2OC)c(OC)c1
-14.7 | CCn1c(C)c(C)c2cc(C(=O)NCCN3CCOCC3)ccc21
-37.7 | Cc1cccc(N2C(=O)N3[C@H](c4ccc(Br)cc4)[C@@H]4C(=O)N(C(C)(C)C)C(=O)[C@@H]4[C@]3(C)C2=O)c1
-36.1 | CCCN1C2CCCC1CC(NC(=O)Nc1ccc(C(C)C)cc1)C2 (configuration not stated)

# Reformatted: results already given
SMILES	OX1R antagonist
CC(=O)Nc1ccc(C2NC(=O)CCC2[N+](=O)[O-])cc1 (configuration not stated)	-8.7
O=C(NCc1ccccc1)c1c(F)c(F)c(F)c(F)c1F	-4.9

# More results.
OX1R antagonist | SMILES
9.0 | Nc1cccc2c(O)cccc12
-30.0 | COc1ccc(S(=O)(=O)N2CCN(C(=O)CCC3CCCC3)CC2)cc1
-15.0 | O=C(c1ccccc1)N1CCN(c2ccc(N3CCOCC3)nn2)CC1
-36.2 | CC(C)=NNc1nc2c(c(=O)n(C)c(=O)n2C)n1CCc1ccccc1
1.0 | CCSC(=S)Nc1c(C)n(C)n(-c2ccccc2)c1=O

# Bioassay records deposited in PubChem BioAssay by The Scripps Research Institute Molecular Screening Center.

# A portion of the library, and most or all hits are left out here.
